VDR inhibitor = vitamin D3 receptor (human) inhibition; P11473; VDR-SRC2-3 peptide fluorescence polarization, 2 h; Potency, µM, for inactives: max response, negative = inhibition, usual class: inhibitors; 400,000 tested, 0.93% active; active means well fitted inhibition curve with a large enough effect; inconclusive means small, poorly fitted or top-dose-only effect, or another doubt; inactive means no such curve, though single readings can be large or run the other way; further: series mostly up to about 120 µM
Target sequence (P11473 whole entry, looked up): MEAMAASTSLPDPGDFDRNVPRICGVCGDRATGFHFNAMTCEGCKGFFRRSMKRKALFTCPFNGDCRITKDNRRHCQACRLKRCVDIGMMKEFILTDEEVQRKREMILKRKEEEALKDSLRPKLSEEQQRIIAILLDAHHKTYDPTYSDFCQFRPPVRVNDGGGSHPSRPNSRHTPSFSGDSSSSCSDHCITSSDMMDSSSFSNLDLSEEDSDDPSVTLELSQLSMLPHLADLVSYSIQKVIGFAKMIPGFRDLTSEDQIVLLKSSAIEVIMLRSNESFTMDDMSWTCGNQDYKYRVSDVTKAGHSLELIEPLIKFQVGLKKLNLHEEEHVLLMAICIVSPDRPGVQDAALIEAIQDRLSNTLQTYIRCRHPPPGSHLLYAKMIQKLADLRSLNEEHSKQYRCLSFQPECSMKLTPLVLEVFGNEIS
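The screen uses fluorescence polarization to detect compounds that interfere with recruitment of the SRC2-3 coactivator peptide to VDR; plates are read after 2 h at room temperature.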
Starred values were filed as active, the others as inactive; ? = inconclusive; & = joins results of further samples. On the % scale 0 is the no-effect control and ±100 the full control effect; potency means the concentration at half of the fitted maximal effect. This is a subset; rates above refer to the full screens.

CC(=O)c1ccc(OCc2cc(C(=O)N3CCC(c4ccncc4)CC3)no2)cc1
  VDR inhibitor = -20%
CCCCCn1c(=N)c(S(=O)(=O)c2ccc(C)cc2)cc2c(=O)n3cc(C)ccc3nc21
  VDR inhibitor = -15%
CCOC(=O)C1CCN(C(=O)CCc2nc3ccccc3[nH]2)CC1
  VDR inhibitor = -18%
CCCc1nc2c(sc3nc4c(cc32)COC(C)(C)C4)c(=O)n1Cc1ccco1
  VDR inhibitor = 2%
CC(C)c1ccc(C2NC(=O)c3ccccc3O2)cc1 (centres undefined)
  VDR inhibitor = -14%
Cc1ccc(Cn2c(CO)cnc2SCC(=O)Nc2cccc(F)c2)cc1
  VDR inhibitor = 12%
O=C(CSc1nc2ccsc2c(=O)n1-c1ccc(Br)cc1)NCc1ccccc1
  VDR inhibitor = 15%
Cc1cnc(NC(=O)NCC2CCCC(CNC(=O)Nc3ncc(C)s3)C2)s1 (centres undefined)
  VDR inhibitor = -12%
O=c1nc(-c2ccccc2)n(-c2ccccc2)c2ncccc12
  VDR inhibitor = -5%
CCCCN(CC)CCNC(=O)c1cc2c(-c3ccccc3F)nn(C)c2s1
  VDR inhibitor = 3%
CCC1CSC(Nc2ccc(C(=O)/C=C/c3ccc(Oc4ccccc4)cc3)cc2)=N1 (centres undefined)
  VDR inhibitor = -12%
Cc1cc(C(=O)N2CCCC(Nc3ccc(F)cc3)C2)n(C)n1 (centres undefined)
  VDR inhibitor = 6%
COc1cc(NC(=S)NC(=O)CCc2ccccc2)cc(OC)c1
  VDR inhibitor = -3%
CN1C(=O)Cc2cc(S(=O)(=O)N3CCOCC3)ccc21
  VDR inhibitor = 2%
Cc1ccc2nc(NCC(N)=O)nc(-c3ccccc3)c2c1
  VDR inhibitor = -3%
CN(C)c1ccc(/C=N/Nc2nncc3ccccc23)cc1
  VDR inhibitor = 14%
CC(C(=O)OCC(=O)c1ccccc1)N1C(=O)C2C3CCC(C3)C2C1=O (centres undefined)
  VDR inhibitor = -5%
NC(=O)c1ccc(Cn2c(C(=O)c3cc(Cl)c(N)c(Cl)c3)c3ccccc3[n+]2[O-])cc1
  VDR inhibitor = -9%
O=C(CCc1ccccc1)NNC(=O)c1ccc(Cl)cc1
  VDR inhibitor = 2%
Cc1ccc(S(=O)(=O)Nc2cc(=O)[nH]c(SCC(=O)Nc3cccc(C(F)(F)F)c3)n2)cc1
  VDR inhibitor = -11%
CN(C)c1ncc2nc(-c3ccccc3)c(=O)n(Cc3cccs3)c2n1
  VDR inhibitor = 11%
CCOc1cc(CNc2ccc(N3CCOCC3)cc2)cc(Br)c1OCC
  VDR inhibitor = 0%
CC(C)(C)c1ccc(-c2n[nH]c(=S)n2CCCN2CCOCC2)cc1
  VDR inhibitor = 12%
Cc1ccc(-c2c(C)n3c4c(=O)n(C)c(=O)n(C)c4nc3n2CCCO)cc1
  VDR inhibitor = 0%
CC(C)(CO)NCC#Cc1ccccc1
  VDR inhibitor = 8%

CC(=O)c1sc(-c2ccc(Cl)cc2)cc1N
  VDR inhibitor = -5%
CCc1nnc(NC(=O)CSc2nnc(-c3c[nH]c4ccccc34)n2CCOC)s1
  VDR inhibitor = -14%
O=C(CCCN1C(=O)/C(=C/c2ccco2)SC1=S)Nc1ccccc1C(=O)O
  VDR inhibitor = -2%
COCCn1c(=O)c2c(nc3n2CCCN3CCc2ccc(OC)c(OC)c2)n(C)c1=O
  VDR inhibitor = -4%
CN(C(=O)c1cccc(NC(=O)C2CCCN(C(=O)OC(C)(C)C)C2)c1)C1CCC1 (centres undefined)
  VDR inhibitor = -19%
CCOC(=O)C1CCN(CCC(=O)Nc2ccc(C)c(C)c2)CC1
  VDR inhibitor = 17%
Cc1cccc(Cc2c(C)nc3nc(SCc4ccccc4C)nn3c2C)c1
  VDR inhibitor = 9%
Cc1nc(C(F)(F)F)ccc1C(=O)Nc1ccccc1N1CCOCC1
  VDR inhibitor = -10%
CC(=O)Nc1ccc(S(=O)(=O)N2CCC(c3nnnn3-c3ccccc3)CC2)cc1
  VDR inhibitor = 6%
Cc1nc(N(CCO)C2CCCCC2)c2nnn(Cc3ccccc3)c2n1
  VDR inhibitor = -17%
CCCCNC(=O)CCc1nc2cccnc2n1Cc1ccccc1
  VDR inhibitor = -5%
CC(C)c1ccc(-c2cc(C(=O)NN3CCN(C)CC3)c3ccccc3n2)cc1
  VDR inhibitor = -17%
CCOc1ccccc1NC(=O)CN(c1ccc(C)cc1)S(=O)(=O)c1c(C)n[nH]c1C
  VDR inhibitor = 5%
CCOC(=O)C1(C)Oc2ccccc2C(c2ccc(OC)cc2)=C1C(=O)OC (centres undefined)
  VDR inhibitor = 7%&-10%
O=C(Nc1ccccc1N1CCOCC1)C1CCN(S(=O)(=O)c2ccc(F)cc2)CC1
  VDR inhibitor = 0%
Clc1cccc(C2=NC(c3cccs3)=Nc3ccc(Br)cc3N2)c1
  VDR inhibitor = 5%
CCC(=O)N1c2ccccc2CC1C(=O)NCCCN1CCN(c2cccc(Cl)c2)CC1 (centres undefined)
  VDR inhibitor = 3%
CCCS(=O)(=O)c1c(S(=O)(=O)CCC)c2c(C(N)=O)cccn2c1C(=O)c1ccc(F)cc1
  VDR inhibitor = 6%
COc1cccc(CN2CC(C(=O)N3CCCCCCC3)CCC2=O)c1 (centres undefined)
  VDR inhibitor = 11%
O=C1NC(=O)N2CCSC2(Cc2ccccc2)N1 (centres undefined)
  VDR inhibitor = ?
COc1ccc(OC)c(N(CC(=O)Nc2ccccc2)S(C)(=O)=O)c1
  VDR inhibitor = -5%
CC(=O)NS(=O)(=O)c1ccc(NC(=O)CSc2ccccc2)cc1
  VDR inhibitor = -12%
CCS(=O)(=O)n1nc(-c2ccco2)nc1N
  VDR inhibitor = -7%
O=C(CO/N=C/c1cccc([N+](=O)[O-])c1)NC1CCCCCC1
  VDR inhibitor = -17%
COc1ccc(CNc2nc3ccccc3n2Cc2ccc(Cl)cc2)cc1OC
  VDR inhibitor = -9%

Rewritten with the structure last: part of the list above
VDR inhibitor | mol
-20% | CC(=O)c1ccc(OCc2cc(C(=O)N3CCC(c4ccncc4)CC3)no2)cc1
-15% | CCCCCn1c(=N)c(S(=O)(=O)c2ccc(C)cc2)cc2c(=O)n3cc(C)ccc3nc21
-18% | CCOC(=O)C1CCN(C(=O)CCc2nc3ccccc3[nH]2)CC1
2% | CCCc1nc2c(sc3nc4c(cc32)COC(C)(C)C4)c(=O)n1Cc1ccco1
-14% | CC(C)c1ccc(C2NC(=O)c3ccccc3O2)cc1 (centres undefined)
12% | Cc1ccc(Cn2c(CO)cnc2SCC(=O)Nc2cccc(F)c2)cc1
15% | O=C(CSc1nc2ccsc2c(=O)n1-c1ccc(Br)cc1)NCc1ccccc1
-12% | Cc1cnc(NC(=O)NCC2CCCC(CNC(=O)Nc3ncc(C)s3)C2)s1 (centres undefined)
-5% | O=c1nc(-c2ccccc2)n(-c2ccccc2)c2ncccc12
3% | CCCCN(CC)CCNC(=O)c1cc2c(-c3ccccc3F)nn(C)c2s1
-12% | CCC1CSC(Nc2ccc(C(=O)/C=C/c3ccc(Oc4ccccc4)cc3)cc2)=N1 (centres undefined)
6% | Cc1cc(C(=O)N2CCCC(Nc3ccc(F)cc3)C2)n(C)n1 (centres undefined)
-3% | COc1cc(NC(=S)NC(=O)CCc2ccccc2)cc(OC)c1
2% | CN1C(=O)Cc2cc(S(=O)(=O)N3CCOCC3)ccc21
-3% | Cc1ccc2nc(NCC(N)=O)nc(-c3ccccc3)c2c1
14% | CN(C)c1ccc(/C=N/Nc2nncc3ccccc23)cc1
-5% | CC(C(=O)OCC(=O)c1ccccc1)N1C(=O)C2C3CCC(C3)C2C1=O (centres undefined)
-9% | NC(=O)c1ccc(Cn2c(C(=O)c3cc(Cl)c(N)c(Cl)c3)c3ccccc3[n+]2[O-])cc1
2% | O=C(CCc1ccccc1)NNC(=O)c1ccc(Cl)cc1
-11% | Cc1ccc(S(=O)(=O)Nc2cc(=O)[nH]c(SCC(=O)Nc3cccc(C(F)(F)F)c3)n2)cc1
11% | CN(C)c1ncc2nc(-c3ccccc3)c(=O)n(Cc3cccs3)c2n1

(listing goes on)
CCOc1ccc(CNC(=O)C(=O)c2cn(CC(=O)N3CCOCC3)c3ccccc23)cc1OC
  VDR inhibitor = -9%
CCCCNc1nc2ccccc2nc1NS(=O)(=O)c1ccc(F)cc1
  VDR inhibitor = -2%
Cc1cc(C)cc(N2C(=O)CN(Cc3ccccc3)C2=S)c1
  VDR inhibitor = -26%
CC(=O)N(CCc1ccccc1C)Cc1cc2cc3c(cc2[nH]c1=O)OCO3
  VDR inhibitor = 12%
CC(Oc1ccc(Cl)cc1)/C(N)=N/O (centres undefined)
  VDR inhibitor = -9%
Cc1ccc(CNC(=O)COCc2cc(-c3ccc4c(c3)OCO4)on2)cc1
  VDR inhibitor = 5%
CC1CN(C(=O)N2c3ccccc3Sc3ccccc32)C(C)CC1=O (centres undefined)
  VDR inhibitor = 16%
COc1ccc(CC(=O)NC(C)c2nnc(SCC(=O)Nc3ccccc3F)n2C)cc1 (centres undefined)
  VDR inhibitor = 7%
COC(=O)c1cccc(OCC(O)Cn2cnc3cc(C)c(C)cc32)c1 (centres undefined)
  VDR inhibitor = 25%
O=C(CCS(=O)(=O)c1ccccc1)N(Cc1cccnc1)c1nc2ccc(Cl)cc2s1
  VDR inhibitor = 7%
COc1ccc(Cl)cc1NC(=O)COC(=O)Cc1cc(OC)c(OC)c(OC)c1
  VDR inhibitor = -5%
CCOCCCn1c(=S)[nH]c2cc(C(=O)NC3CCCCC3C)ccc2c1=O (centres undefined)
  VDR inhibitor = 2%
Cc1cc(C)cc(OC(=O)c2cc(-c3ccc4c(c3)OCCO4)on2)c1
  VDR inhibitor = 9%
COc1nccnc1NS(=O)(=O)c1ccc(NC(=S)NC(=O)/C=C/c2ccc(F)cc2)cc1
  VDR inhibitor = -12%
O=C(CN1CCOCC1)Nc1cccc(Cl)c1Cl
  VDR inhibitor = -3%
CCN1CCCC1CNC(=O)c1csc2c1CCCC2 (centres undefined)
  VDR inhibitor = 1%
CCOC(=O)C1(Cc2cccc(Cl)c2)CCCN(C(=O)c2ccc(COC)s2)C1 (centres undefined)
  VDR inhibitor = -7%
CC(=O)Nc1ccc(OCCC[n+]2ccccc2)cc1
  VDR inhibitor = ?
CC1=C(C(=O)OCc2ccc(C)cc2)C(c2ccccc2C(F)(F)F)CC(=O)N1 (centres undefined)
  VDR inhibitor = -11%
CCN(CC)CCCNC(=O)c1nn(-c2ccc(OC)cc2)c(=O)c2c1c1ccccc1n2C
  VDR inhibitor = 1%
CNC(=O)/C(C#N)=C/c1ccc(-c2nc3ccccc3s2)o1
  VDR inhibitor = 5%
Cc1ccc2c(CN3CCN(C(=O)c4ccco4)CC3)cc(=O)oc2c1C
  VDR inhibitor = -10%
CC1=Nc2ccccc2/C1=C/c1c(N)n2c(S(=O)(=O)C(C)C)nsc2nc1=O
  VDR inhibitor = -26%
CCCCCc1ccc(-c2cn(Cc3cccc(OC)c3)nn2)cc1
  VDR inhibitor = 14%
O=[N+]([O-])c1ccc(O)c(Nc2ncnc3ccc(Br)cc23)c1
  VDR inhibitor = -3%

Cc1ccccc1S(=O)(=O)Cc1ccc(C(=O)NCCN2CCCCC2C)o1 (centres undefined)
  VDR inhibitor = -7%
Cc1nn2c(-c3cccc(NC(=O)CSc4nc5ccccc5o4)c3)nnc2c2ccccc12
  VDR inhibitor = -14%
O=C(CC1N=C2c3ccccc3N=C(SCc3ccc(Cl)cc3)N2C1=O)NCCc1ccccc1 (centres undefined)
  VDR inhibitor = 8%
O=P1(O)Cc2ccccc2-c2ccccc21
  VDR inhibitor = -8%
O=C(O)CN1C(=O)NC2(CCOc3ccccc32)C1=O (centres undefined)
  VDR inhibitor = -8%
O=C(c1cnn2c(C(F)(F)F)cc(-c3cccs3)nc12)N1CCN(C(c2ccccc2)c2ccccc2)CC1
  VDR inhibitor = 1%
COCCNc1ncnc2ccc(-c3cccc(NS(C)(=O)=O)c3)cc12
  VDR inhibitor = ?
O=C(CCc1nc2ccccc2s1)NCc1ccccc1F
  VDR inhibitor = ?
CCOc1ccc(N(CC(=O)Nc2cccc(Br)c2)S(C)(=O)=O)cc1
  VDR inhibitor = -12%
COc1ccc(OCCCN2CCc3ccccc3C2)cc1
  VDR inhibitor = -5%
CCSc1nnc2c(n1)OC(C)(C)Nc1ccccc1-2
  VDR inhibitor = 9%
CC(=O)N(c1c(C)n(C)n(-c2ccccc2)c1=O)C1(C(=O)NC2CCCC2)CCCCC1
  VDR inhibitor = -8%
COCCc1nc2ccc(C(=O)N3CCCC(CCCO)C3)cc2o1 (centres undefined)
  VDR inhibitor = -1%
CN(C)/C=C1\N=C(c2ccccc2)OC1=O
  VDR inhibitor = -4%
COc1ccc(-n2c(C)cc(/C=C/c3nc(O)c([N+](=O)[O-])c(=O)[nH]3)c2C)cc1
  VDR inhibitor = 8%
CCc1cc2ccc(C)cc2nc1SCC(=O)Nc1cc(C)on1
  VDR inhibitor = -20%
Cc1sc(-c2cccnc2)nc1OC(=O)C1CC1
  VDR inhibitor = -6%
CCN(CC)c1nc(-c2ccc(C(=O)NN)cc2)nc(-c2ccc(C(=O)NN)cc2)n1
  VDR inhibitor = -7%
CC(C)(C)OC(=O)N1CCC(c2c(C(=O)NC3CCN(Cc4ccccc4)CC3)cnn2-c2cccc(F)c2)CC1
  VDR inhibitor = 9%
Fc1c(F)c(F)c(SCn2cc(Br)cn2)c(F)c1F
  VDR inhibitor = -8%
O=C(Nc1cccc(C(F)(F)F)c1)c1csc(-c2ccncc2)n1
  VDR inhibitor = -3%
O=C(CCn1cnc2onc(-c3ccc(F)cc3)c2c1=O)N1CCN(c2ccc(F)cc2)CC1
  VDR inhibitor = 16%
O=C(NCc1ccccc1Cl)C1CCN(S(=O)(=O)N2CCC3(CC2)OCCO3)CC1
  VDR inhibitor = 7%
CCCCC1=CC2=C(c3ccco3)C(=O)C(C)(OC(=O)c3ccc(OC)cc3)C(=O)C2=CN1CCc1ccccn1 (centres undefined)
  VDR inhibitor = ?
FC(F)(F)c1cc(-c2ccccc2)nc(-n2cc(Cl)cn2)n1
  VDR inhibitor = 16%
CCOC(=O)SC1=N/C(=C\c2ccc(N(C)C)cc2)C(=O)S1
  VDR inhibitor = -2%

Assay outcomes from PubChem BioAssay.
